Bioassay records: PubChem BioAssay, National Center for Advancing Translational Sciences (NCATS)
EPAC1 agonist: validation of human EPAC1 agonists | Potency, µM, for inactives: max response, positive = active, most hits filed as activators | 1% of 16,000 active | EPAC1 Rap1b BODIPY-GDP exchange, fluorescence; active = well fitted activation curve with a large enough effect; inconclusive = small, poorly fitted or top-dose-only effect; inactive = no such curve, though single readings can be large or run the other way;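 also: nearly all actives have a fitted effect of over 70% in size; series mostly up to about 76 or 150 µM; scaled to a cAMP control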
Target sequence (O95398 whole entry, looked up): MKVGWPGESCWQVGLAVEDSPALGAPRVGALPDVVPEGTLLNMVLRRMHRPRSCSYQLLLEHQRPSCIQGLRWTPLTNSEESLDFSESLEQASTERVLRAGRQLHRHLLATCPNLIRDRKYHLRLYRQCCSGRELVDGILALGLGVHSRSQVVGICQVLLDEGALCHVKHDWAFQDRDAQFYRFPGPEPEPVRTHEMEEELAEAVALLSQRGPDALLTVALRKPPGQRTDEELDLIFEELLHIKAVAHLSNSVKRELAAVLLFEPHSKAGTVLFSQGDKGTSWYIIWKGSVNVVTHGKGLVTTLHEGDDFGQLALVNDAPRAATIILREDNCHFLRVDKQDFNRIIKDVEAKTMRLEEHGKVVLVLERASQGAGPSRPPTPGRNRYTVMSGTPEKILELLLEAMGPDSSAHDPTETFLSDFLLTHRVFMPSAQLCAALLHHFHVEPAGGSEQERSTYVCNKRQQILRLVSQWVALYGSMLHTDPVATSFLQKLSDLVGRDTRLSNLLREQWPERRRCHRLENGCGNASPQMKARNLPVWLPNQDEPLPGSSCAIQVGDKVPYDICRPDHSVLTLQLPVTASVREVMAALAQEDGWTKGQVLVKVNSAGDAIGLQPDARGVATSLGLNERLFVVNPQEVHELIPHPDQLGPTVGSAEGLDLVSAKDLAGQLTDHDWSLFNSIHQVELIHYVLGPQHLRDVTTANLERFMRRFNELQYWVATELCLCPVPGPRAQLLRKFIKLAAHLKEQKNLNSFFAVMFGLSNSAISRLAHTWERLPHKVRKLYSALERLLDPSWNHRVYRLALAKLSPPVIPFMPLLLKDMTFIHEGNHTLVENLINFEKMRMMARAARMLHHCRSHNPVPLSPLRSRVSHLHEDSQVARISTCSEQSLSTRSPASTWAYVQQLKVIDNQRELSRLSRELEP
Active calls of the source: *; ? = inconclusive; & = joins results of further samples; [ ] = dose if it differs, or a comment. % is scaled to controls: 0 for no effect and ±100 for the full control effect; potency is read from the fitted curve at half-maximal effect.

The opening 2 records as a preview:
| compound | EPAC1 agonist |
| --- | --- |
| Nc1nc(Cl)nc2c1ncn2[C@@H]1O[C@H](CO)[C@@H](O)[C@@H]1F | -13% |
| Cc1cnc(-n2ncc(C(=O)NCCc3cccnc3)c2C)nc1-c1cccs1 | -8% |

The whole of this part, from the first entry:
| compound | EPAC1 agonist |
| --- | --- |
| Nc1nc(Cl)nc2c1ncn2[C@@H]1O[C@H](CO)[C@@H](O)[C@@H]1F | -13% |
| Cc1cnc(-n2ncc(C(=O)NCCc3cccnc3)c2C)nc1-c1cccs1 | -8% |
| COc1cccc(-c2ccc3ncnc(NCCN4CCOCC4)c3c2)c1 | 16% |
| N[C@@H](Cn1cc(F)c(=O)[nH]c1=O)C(=O)O | -3% |
| COc1cccc(CN2Cc3cccc4c3[C@H](C=CC4)CC2=O)c1 | ? |
| Cc1cc(N(C)C)cc(C)c1C=O | 7% |
| O=C(Nc1ccc([N+](=O)[O-])cc1Cl)c1cc(Cl)ccc1O | ? |
| Cc1csc[n+]1CC(=O)c1ccc(I)cc1 | ? |
| Nc1nc2ccc([N+](=O)[O-])cc2s1 | 16% |
| CN[C@@H]1[C@H](O[C@H]2[C@H](O[C@H]3[C@H](O)[C@@H](O)[C@H](N=C(N)N)[C@@H](O)[C@@H]3N=C(N)N)O[C@@H](C)[C@]2(O)C=O)O[C@@H](CO)[C@H](O)[C@H]1O | 9% |
| C/C(=C\CO)CCC(C)CCCC(C)CCCC(C)C (configuration not stated) | -206%[inhibitor] |
| COC(=O)[C@@H]1CCCN1C(=O)c1c(OC)cc(=O)n2c1CCN(Cc1c(C)[nH]c3ccccc13)CC2 | ? |
| CN1CCc2ccccc2Cc2[nH]c3ccccc3c2CC1 | -13%&-4% |
| Cc1noc(C)c1-c1ccc2ncnc(NCc3cccnc3)c2c1 | -26% |
| CCCCN1CC[C@H]2C=CC[C@@H](C(=O)Nc3ccc(Cl)c(C(F)(F)F)c3)[C@H]2C1=O | 0% |
| CCCCCCCC/C=C\CCCCCCCC(=O)NCc1ccc(O)c(OC)c1 | -55%&-70%[inhibitor] |
| CCCCCCCCCC[n+]1cccc2cc(Br)ccc21 | -10% |
| COCCn1c(=O)c(-c2cccs2)nc2cnc(N(C)C)nc21 | 112µM* |
| CS(=O)(=O)N1CCC[C@@]2(CCN(C(c3ccccc3)c3ccccc3)C2)C1 | -10% |
| Cc1cc(-c2ccnc(-n3ncc(C(=O)NCC4CCCN(C)C4)c3C3CC3)n2)c(C)s1 (configuration not stated) | -11% |
| O=C1[C@H](Cc2ccccc2)NC/C=C\C[C@H](c2ccc(Cl)cc2)N1Cc1ccc(Cl)cc1 | ? |
| CC(C)NC(=O)N1CCCC2(CCN(C(=O)c3ccncc3)CC2)C1 | -96%[inhibitor] |
| O=C1[C@H](Cc2ccccc2)NC/C=C\C[C@@H](c2ccc(Cl)cc2)N1Cc1ccccc1 | -65%[inhibitor] |
| CNc1ncnc2ccc(-c3ccccc3C)cc12 | 5% |
| COc1ccc(-n2c(=O)cnc3cnc(N4CCN(C)CC4)nc32)cc1 | -27% |
| O=C(c1cnccn1)N1CCC2(CC1)CN(c1cccc(-c3ccccc3)c1)C2 | ? |
| CCCCN1CCC(CCC(=O)c2cc(Cl)c(N)cc2OC)CC1 | -11%&3% |
| N=C(N)N1CCc2ccccc2C1 | -10% |
| CS(=O)(=O)Nc1cccc(-c2ccc3ncnc(Nc4ccccc4)c3c2)c1 | ? |
| O=S(=O)(O)c1cc(O)c2c(N=Nc3ccc(Nc4ccccc4)c4c(S(=O)(=O)O)cccc34)cc(S(=O)(=O)O)cc2c1 | 9% |
| Cc1cc(C)n(-c2cccc(C(=O)NCC3Cc4cc(Cl)cc(-c5cnccn5)c4O3)c2)n1 (configuration not stated) | 1% |
| O=C(c1cc(C(F)(F)F)cc(C(F)(F)F)c1)N1CCC[C@@]2(CCN(Cc3nccs3)C2)C1 | -108%[inhibitor] |
| CCNc1ncc2nc(CCc3ccccc3)c(=O)n(Cc3cccc(OC)c3)c2n1 | 7% |
| CCC1CN(CCNC(=O)c2ccc3c(c2)OCO3)Cc2cc(OC)ccc2O1 (configuration not stated) | 3% |
| CCC(C)(C)C(=O)OC1CC(C)C=C2C=CC(C)C(CCC3CC(O)CC(=O)O3)C21 (configuration not stated) | 6% |
| O=c1[nH]c(=O)n([C@@H]2O[C@H](CO)[C@@H](O)[C@H]2O)cc1Br | 4% |
| NC(=O)c1cccnc1 | -29% |
| CCCCCOC(=O)Nc1nc(=O)n([C@@H]2O[C@H](C)[C@@H](O)[C@H]2O)cc1F | 20% |
| Cc1ccc(CN2CCC(=O)N(Cc3ccccn3)CC2)c(C)c1 | -13% |
| O=C(O)c1ccc2c3c1cccc3c(=O)n1c3ccccc3nc21 | -6% |
| COC(C)=O | 3% |
| COc1ccc(NC(=O)N2CCC3(CC2)CCN(C(=O)c2cc(C(F)(F)F)cc(C(F)(F)F)c2)CC3)cc1 | -87%[inhibitor] |
| CC(C)NC(=O)N1CC2(CCN(C(=O)c3cccn3C)CC2)C1 | -36%[inhibitor] |
| COC(=O)C1N[C@@H]([C@@H](NC(=O)COc2ccccc2)C(=O)Nc2ccc(OC)cc2)SC1(C)C (some centres not stated) | 7% |
| COc1ccc(C(=O)N2CCC3(CCN(Cc4ccncc4)CC3)CC2)cc1 | -44%[inhibitor] |
| O=C(NCc1ccccn1)c1cnn(-c2ncc3c(n2)-c2ccccc2CC3)c1C1CC1 | 1% |
| CN(C)c1ncc2nc(CCc3ccccc3)c(=O)n(-c3ccccc3)c2n1 | 112µM* |
| CC(CN(C)C)CN1c2ccccc2CCc2ccccc21 (configuration not stated) | 5%&11%&16% |
| CCN(Cc1ccncc1)Cc1ccc2c(c1)CN(C(=O)c1ccc(C#CC(C)(C)O)o1)CCO2 | -13% |
| O=C(c1cnccn1)N1CCC2(CC1)CN(c1ccccn1)C2 | -78%[inhibitor] |
| Cc1nc2cc(NC(=O)[C@@H]3C[C@@H](Sc4ccccn4)CN3Cc3ccccc3)ccc2s1 | 3% |
| O=C1C[C@@H]2c3c(cccc3CN1Cc1ccccc1Br)C[C@@H](O)[C@H]2O | 11% |
| O=C(NCN1CCOCC1)c1cnccn1 | -15% |
| COc1cccc(Nc2ncc3nc(-c4cc(F)cc(F)c4)c(=O)n(C[C@H]4CCCO4)c3n2)c1 | 15% |
| O=C(O)CO.[NH2-].[NH2-].[Pt+2] | -4% |
| O=C1C[C@H]2C=CCc3cccc(c32)CN1Cc1ccc(Br)cc1 | ? |
| COCCn1c(=O)c(-c2cccc(C#N)c2)nc2cnc(Oc3ccccc3)nc21 | ? |
| O=C(c1cnccn1)N1CCC2(CC1)CN(Cc1ccccc1)C2 | -52%[inhibitor] |
| CC(C)Oc1ccc(C(=O)NCC2Cc3cc(F)cc(-c4cnccn4)c3O2)cc1 (configuration not stated) | -11% |
| CC(C(=O)O)c1ccc(N2Cc3ccccc3C2=O)cc1 (configuration not stated) | -16% |

(listing goes on)
| compound | EPAC1 agonist |
| --- | --- |
| c1ccc(Nc2cc(-c3ccoc3)ncn2)cc1 | -29% |
| COc1ccc(Oc2ncc3ncc(=O)n(C[C@H]4CCCO4)c3n2)cc1 | ? |
| CCN1CCCC1CNC(=O)c1cc(S(N)(=O)=O)ccc1OC (configuration not stated) | 9%&-7%&-12%&10% |
| O=c1cnc2cnc(N3CCNCC3)nc2n1CCc1ccccc1 | -47%[inhibitor] |
| O=C(c1noc2c1CCCC2)N1CCOc2ccc(CN3CCN(c4ccccn4)CC3)cc2C1 | -9% |
| COc1ccc(-c2nc3cnc(N4CCN(C)CC4)nc3n(C3CC3)c2=O)cc1 | -18% |
| CC(O)(COc1ccccc1)c1ccc2c(c1)CN(Cc1ccc3nsnc3c1)CCO2 (configuration not stated) | 25% |
| CN(CCO)C(=O)c1cn(C2CCCN(Cc3cc4ccccc4s3)C2)nn1 (configuration not stated) | -22% |
| COc1cc(-c2coc3cc(OC)c(OC)c(OC)c3c2=O)cc(OC)c1OC | 19% |
| COC(=O)[C@H]1[C@H]2C[C@@H]3c4[nH]c5cc(OC)ccc5c4CCN3C[C@H]2C[C@@H](OC(=O)COc2ccc(OC)cc2)[C@@H]1OC | 1% |
| CN(C)Cc1ccccc1-c1cncnc1NC1CC1 | ? |
| Cn1cnc2c(NC3CCCC3)ncnc21 | -8% |
| COc1ccc(-n2c(=O)c(-c3cccs3)nc3cnc(OC)nc32)cc1 | -29% |
| O=C(N[C@@H]1CCC(=O)N(CC[C@H](Sc2ccc(Br)cc2)c2ccccc2)CC1)OCc1ccccc1 | 18% |
| CCCCCCNC(=O)n1cc(F)c(=O)[nH]c1=O | -54%[inhibitor] |
| O=C(C(=O)N1CCOc2ccc(CN3CCN(Cc4ccccn4)CC3)cc2C1)c1ccccc1 | 3% |
| CC(C)CC(NC(=O)CN)C(=O)NC(Cc1ccccc1)C(=O)O (configuration not stated) | 21% |
| Cc1cc(C)n(-c2ccc(C(=O)NCC3Cc4cc(-c5cnccn5)ccc4O3)cc2)n1 (configuration not stated) | 3% |
| Cn1cnc2c(ncn2[C@@H]2O[C@H](CO)[C@@H](O)[C@H]2O)c1=N | -16% |
| C=C[C@@]1(C)CC(=O)[C@@]2(O)[C@@]3(C)[C@@H](O)CCC(C)(C)[C@@H]3[C@H](OC(=O)CCN(C)C)[C@H](OC(C)=O)[C@@]2(C)O1 | -13% |
| COc1ccc(CN2CCCC(n3cc(C(=O)NC4CCCC4)nn3)C2)c(O)c1 (configuration not stated) | -14% |
| CS(=O)(=O)N1CCC2(CCCN(C(=O)Nc3ccccc3)C2)CC1 | -37%[inhibitor] |
| COc1ccc(NC(=O)N2CCC3(CC2)CCN(S(=O)(=O)c2ccccc2)CC3)cc1 | -58%[inhibitor] |
| CCOc1cc(N)c(Cl)cc1C(=O)NCC1CN(Cc2ccc(F)cc2)CCO1 (configuration not stated) | -5% |
| C[C@@H]1O[C@@H](O[C@H]2[C@H](Oc3cc(O)c4c(c3)O[C@H](c3ccc(O)cc3)CC4=O)O[C@H](CO)[C@@H](O)[C@@H]2O)[C@H](O)[C@H](O)[C@H]1O | 4% |
| O=C(Nc1ccccc1)N1CC[C@@]2(CCCN(C(=O)c3cccc(F)c3)C2)C1 | 9% |
| CCS(=O)(=O)NCc1c(C)ncc2c1CCN(C(=O)c1ccc(F)cc1)C2 | -9% |
| COc1ccc(C(=O)N2CCC3(CCCN(C(c4ccccc4)c4ccccc4)C3)CC2)cc1 | -8% |
| COCc1c(C(=O)NC2CCCCC2)cnn1-c1nccc(-c2ccccc2OC)n1 | -9% |
| CCC1CN(CC(=O)NC(c2ccccn2)C(F)(F)F)Cc2cc(OC)ccc2O1 (configuration not stated) | 0% |
| COC(=O)[C@@H]1N2C(=O)[C@@H](NC(=O)C(C)Oc3ccccc3)[C@H]2SC1(C)C (some centres not stated) | 25% |
| N#Cc1cccc(NC(=O)N2CCCC3(CCN(C(=O)c4ccncc4)CC3)C2)c1 | -72%[inhibitor] |
| COc1ccccc1-c1cc(N(C)Cc2ccco2)ncn1 | -27% |
| CC#CCOC(=O)C1=CCCN(C)C1 | -6%&2% |
| CC(=O)N(CC(C)C(=O)O)c1c(I)cc(I)c(N)c1I (configuration not stated) | -14% |
| COc1ccc(Oc2ncc3nc(-c4ccc(F)cc4)c(=O)n(C)c3n2)cc1 | -49%[inhibitor] |
| COc1cccc(CNc2ncnc3sc(C(=O)N4CC5CCC4C5)c(C)c23)c1OC (configuration not stated) | -1% |
| COc1cccc(CNC(=O)c2cnn(-c3ncc4c(n3)-c3ccccc3CCC4)c2C)c1OC | -1% |
| O=C[C@H](O)[C@@H](O)[C@H](O)[C@H](O)CO | 22% |
| CC(Oc1ccccc1)C(=O)NC1C(=O)N2C(C(=O)O)C(C)(C)S[C@@H]12 (some centres not stated) | -43% |
| CCNc1ncc2nc(C)c(=O)n(C)c2n1 | -46%[inhibitor] |
| CN(C)C(=O)c1ccc(-c2ccc3ncnc(NC4CC4)c3c2)cc1 | -8% |
| Cc1ccsc1C(=CCCN1CCC[C@@H](C(=O)O)C1)c1sccc1C | -24% |
| CC[N+]1(CC(=O)c2ccc(Cl)cc2)CCCCC1 | 16% |
| O=C(c1csnn1)N1CCC[C@@]2(CCN(c3ccncc3)C2)C1 | -47%[inhibitor] |
| Cc1c(C(=O)NCC2(c3ccccc3)CCOCC2)cnn1-c1nccc(-c2ccco2)n1 | -1% |
| COCC(=O)Nc1cc(C(=O)N2CC3CCC2C3)c2c(c1)nc(-c1ccncc1)n2C (configuration not stated) | -9% |
| Cc1nc2ccccc2nc1CN1CCOc2ccc(C3(O)CCN(c4ccccc4F)CC3)cc2C1 | 0% |
| NC(=O)CC[C@H](N)C(=O)O | ? |
| CNc1nc(-c2ccccc2C)nc2ccccc12 | -20% |
| O=C(Nc1cccc(F)c1)N1CCC2(CC1)CCN(C(=O)c1csnn1)CC2 | -51%[inhibitor] |
| CC(C)(C)C(=O)C(Oc1ccc(Cl)cc1)n1ccnc1 (configuration not stated) | -21% |
| Cn1cc(C(=O)OCC2CCN(CCNS(C)(=O)=O)CC2)c2ccccc21 | 0%&-14% |
| CC(C)c1nc2cccnc2n1C1CCN(C(=O)Cn2cccn2)CC1 | -4% |
| COc1ccc(-n2c(=O)c(-c3cc(F)cc(F)c3)nc3cnc(N4CCNCC4)nc32)cc1 | -48%[inhibitor] |
| NC[C@@H]1O[C@H](c2ccccc2)Cc2c1ccc(O)c2O | 2%&8% |
| CC(=O)N[C@@H](CC(=O)N[C@@H](CCC(=O)O)C(=O)O)C(=O)O | -14% |
| COc1ccc(-c2nc3cnc(N(C)C)nc3n(C3CC3)c2=O)cc1 | -24% |
| CN(C)CC(C)(O)c1ccc2c(c1)CN(Cc1cccn1-c1ncccn1)CCO2 (configuration not stated) | 9% |
| COc1ccc2c(=O)c(-c3ccccc3)coc2c1 | -15% |
| Cn1cccc1C(=O)N1CCC2(CCCN(c3ccc(-c4ccccc4)cc3)C2)CC1 | -2% |
| COC1=CC(=O)C(C(=O)c2ccccc2)=CC1=O | 5% |

Some of the compounds tested (hit frequency here may not be typical).
